# CBX7 AlphaScr – inhibitors of human CBX7 binding to H3K27me3 peptide; O95931; AlphaScreen His6-CBX7 / biotin-H3K27me3 peptide binding; hits give low values; normalised signal (fraction of DMSO) (no concentration beside the values); hit rate 1.1% among 66,000; in the data active means normalised signal below about 0.5;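 further: 100 nL library stock added to about 20 µL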
# Target sequence (O95931 whole entry, looked up): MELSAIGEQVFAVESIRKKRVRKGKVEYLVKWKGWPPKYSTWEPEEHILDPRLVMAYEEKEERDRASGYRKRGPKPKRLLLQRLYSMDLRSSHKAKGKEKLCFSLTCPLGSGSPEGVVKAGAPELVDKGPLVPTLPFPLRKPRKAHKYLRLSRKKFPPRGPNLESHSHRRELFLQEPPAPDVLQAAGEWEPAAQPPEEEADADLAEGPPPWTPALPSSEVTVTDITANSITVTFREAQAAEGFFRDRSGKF
# CBX7 AlphaScr z-score – second read-out of CBX7 AlphaScr, no call of its own (marks repeat the call); z-score; measured here: z-score of CBX7 signal; some inactives read as strong as hits; reference of the scale not given here;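 same signal on another scale; lower means less binding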
# Starred values were filed as active, the others as inactive; & = joins results of further samples.
SMILES,CBX7 AlphaScr,CBX7 AlphaScr z-score
CCn1cc(C(=O)Nc2nccs2)c(=O)c2ccc(C)nc21,1.1,1.9
Cc1cccc(CN2CCN(CC(=O)NC3CCCC3)C2=O)c1,0.99,-0.3
OCCn1c(-c2ccc(Cl)cc2)cn2c3ccccc3nc12,0.8,-5.8
COCCNC(=O)CNC(=O)c1nn(-c2ccc(OC)c(Cl)c2)c(=O)c2ccccc12,0.95,-0.88
COc1ccc(CCNC(=O)C2c3ccccc3C(=O)N2CCc2ccc(C)cc2)cc1OC (stereo not drawn),1.1,0.98
O=C(Nc1ccccc1Cl)c1ccc(F)c(S(=O)(=O)N2CCOCC2)c1,1,0.5
COc1ccc(Nc2nnc(-c3ccc(O)cc3)c3ccccc23)cc1,0.66,-3.8
CCC1Oc2ccccc2N(CC(=O)NCCCN2CCN(c3ccccc3F)CC2)C1=O (stereo not drawn),0.98,-0.74
Cc1cccc(C)c1NC(=O)C1(N(C)C(=O)c2ccc3ccccc3n2)CCCC1,1.1,1.6
CC(C)(C)N1C(=O)c2ccc(C(=O)Nc3ccc4c(c3)OCO4)cc2C1=O,1,0.024
CN(C(=O)Cc1c(C(=O)O)[nH]c2ccc(Cl)cc12)c1cccc(Cl)c1,1.1,1.9
O=C(NCc1ccccc1)c1ccc2c(c1)N(Cc1ccc(Cl)cc1)CCS2,0.79,-2.3
COc1cccc(C(=O)Nc2cc3c(cc2C(=O)c2ccccc2Br)OCCO3)c1,0.96,-0.81
Cc1ccc(S(=O)(=O)N2CCn3c(nc4ccccc43)C2)cc1,1,0.7
CCc1ccccc1Nc1cc(C(=O)NCCCN2CCOCC2)c2ccccc2n1,0.89,-1.7
COc1cc(NC(=O)CCN2CCN(C/C=C/c3ccccc3)CC2)cc(OC)c1,0.94,-1.5
CCCCNC(=O)c1nc(-c2ccccc2C)oc1C,1.1,0.19
CCOc1ccc(Nc2cc(C)nc3ccc(Cl)cc23)cc1,1,-0.0024
CN(C)c1ccc(/C=C\c2nc3ccccc3c(=O)n2-c2ccc(C(=O)O)cc2)cc1,1,1.5
c1ccc(N2CCN(c3ccc4nncn4n3)CC2)nc1,1.1,3.2
CC(C)N(CC#CC(O)(c1ccccc1)c1ccccc1)CCO,1.3,2.2
CC1CCCN(S(=O)(=O)c2ccc(C(=O)Nc3nc(-c4ccccn4)cs3)cc2)C1 (stereo not drawn),0.22*,-25*
O=C1CCCc2oc3c(Cl)cc(NS(=O)(=O)c4ccccc4)cc3c21,1.1,2.5
CC1(C)Cc2nc3sc4c(NCCCO)ncnc4c3cc2CO1,0.95,-0.52
COc1cc(OC)cc(-c2cc3nc(C)c(CCC(=O)NCc4ccccc4OC)c(C)n3n2)c1,0.97,-0.62
CCC(C)NC(=O)CN1C(=O)COc2ccc(S(=O)(=O)N3CCOCC3)cc21 (stereo not drawn),0.98,-0.56
Cc1ccn2cc(-c3ccc(O)c(O)c3)nc2c1,0.69,-1.2
Cc1ccc(S(=O)(=O)Nc2ccc(Cl)cc2C(=O)Nc2ccc(Cl)cc2)cc1,1,0.68
CC1CCN(CCCNC(=O)c2cc3c(s2)-c2ccccc2OC3)CC1,1.1,5.9
CCN(CCCNC(=O)CN(C)S(=O)(=O)c1ccc2c(c1)CCC(=O)N2)c1cccc(C)c1,0.9,-2.4
CCOc1cc2[nH]c(=O)n(CCC(=O)N3CCN(c4ccccc4OC)CC3)c(=O)c2cc1OCC,0.97,-0.58
COC(=O)c1ccccc1NC(=O)c1nn(-c2ccccc2OC)c(=O)c2ccccc12,0.97,-0.6
COc1ccc(-n2nc3c(c2NC(=O)CC(C)C)CSC3)cc1,0.92,-1.4
CCc1cccc(NC(=O)C2CCCN(S(=O)(=O)c3c(C)noc3C)C2)c1 (stereo not drawn),0.98,-0.18
COCCNC(=O)C1CCN(C(=O)c2cc3sccc3n2Cc2ccc(F)cc2)CC1,1,0.82
O=C(NC1CC1)c1ccc2c(c1)N(Cc1ccc(Cl)cc1)C(=O)c1ccccc1S2(=O)=O,0.84,-1.7
CCC(Cc1ccccc1)NC(=O)CS(=O)(=O)Cc1nc(-c2ccc(OC)cc2)oc1C (stereo not drawn),0.62,-6.4
Cc1cc(CN2CCOCC2)c(C)cc1O,1,0.28
Cc1c(C(=O)NCCCN2CCCC2=O)oc2ccc(S(=O)(=O)N3CCOCC3)cc12,1,0.13
O=C(Nc1ccc(-c2nc3ncccc3o2)cc1)c1ccc(Br)cc1,0.9,-1.3
CCOC(=O)CNC(=O)C1CCCc2c1[nH]c1ccc(Cl)cc21 (stereo not drawn),1.2,1.3
Cc1cccc(-c2nnc(SCC(=O)Nc3cc(C)on3)o2)c1,1.1,2.3
CCOC(=O)c1sc2nc(C)nc(Nc3ccccc3OC)c2c1C,1.1,4.6
CCc1nc(NCCN2CCOCC2)c(C#N)c2c1COC(C)(C)C2,0.91,-1.1
CCN(CC)CCCNC(=O)c1nn2c(C(F)(F)F)c3c(nc2c1Cl)-c1ccccc1CC3,1.3,2.5
O=C(Cc1ccccc1)Nc1nnc(-c2ccc(F)cc2)s1,0.98,-0.39
Cc1c(C(=O)NCCC(C)C)oc2ccc(S(=O)(=O)N3CCC(C)CC3)cc12,1,0.17
Cc1ccc(-n2ncc3c(Nc4ccc(C(C)C)cc4)ncnc32)c(C)c1,0.96,-0.93
Cc1cccc(C)c1Nc1nc(-c2ccccc2)c(CC(=O)O)s1,0.96,-1.1
CCN(CC)CCNC(=O)C1CCN(c2cc(C)nc3c(-c4ccc(Cl)cc4)c(C)nn23)CC1,1.2,0.51
O=C(Cn1c(=O)[nH]c2ccsc2c1=O)NCCc1c[nH]c2ccccc12,0.83,-1.3
CCn1c(C(=O)N2CCC(C(=O)NCCOC)CC2)cc2sccc21,0.96,-0.19
O=C(Cn1nc(Cc2cccnc2)c2ccccc2c1=O)N1CCCc2ccccc21,1,0.28
CC(=O)Oc1cccc(N2C(=O)c3ccc(-c4nc5ccccc5o4)cc3C2=O)c1,1,0.32
CCN1CCN(C(=O)CCN2C(=O)COc3ccc(C)cc32)CC1,1,-0.054
COc1ccccc1NC(=O)c1cccc(N2C(=O)C3C4C=CC(C4)C3C2=O)c1 (stereo not drawn),0.91,-0.091
CCCCOc1ccc(-c2cnc3ccccc3n2)cc1,1.4,8.3
COc1ccc(-c2nc3cc(N)ccc3o2)cc1Cl,1.1,2.4
COC(=O)c1ccc(NC(=O)CSc2nc3ccc(OC)cc3[nH]2)cc1,1.4,4
COc1ccc(-c2nnn(CC(=O)NCCc3ccccc3)n2)cc1OC,1.1,1.5

# Rewritten with values under each structure: part of the list above
# Order of results: CBX7 AlphaScr | CBX7 AlphaScr z-score
CCOc1cc2[nH]c(=O)n(CCC(=O)N3CCN(c4ccccc4OC)CC3)c(=O)c2cc1OCC
→ 0.97 | -0.58
COC(=O)c1ccccc1NC(=O)c1nn(-c2ccccc2OC)c(=O)c2ccccc12
→ 0.97 | -0.6

# (continued)
SMILES,CBX7 AlphaScr,CBX7 AlphaScr z-score
COc1ccc(CN2C(=O)c3cccnc3C2Nc2ccc(Br)cc2F)cc1 (stereo not drawn),0.19*,-10*
COc1ccc(OC)c(CCNC(=O)c2ccc3c(c2)NC(=O)c2ccccc2S3)c1,1.1,0.38
CCCCNC(=O)c1ccc2c(c1)N(C)C(=O)c1ccccc1S2,1,1.5
COc1ccc(-c2nc(CS(=O)(=O)CC(=O)NCc3ccc4c(c3)OCO4)c(C)o2)cc1,1.1,2.1
Cc1ccc(-c2nnc(SCC(=O)N3CCc4ccccc43)o2)cc1C,1,1.5
Cc1ccc(Cc2c(C)nc3nc(SCC(=O)NCc4ccccc4)nn3c2C)cc1,1.2,1.5
CCCSCCCNC(=O)C1CCN(C(=O)c2cc3sccc3n2C)CC1,1,0.32
CCc1ccc(-c2nc(SCC(=O)NCC3CCCO3)c(-c3ccc(C)cc3)[nH]2)cc1 (stereo not drawn),0.9,-1.7
COc1ccc(N2C(=O)CC(N3CCN(c4cccc(Cl)c4)CC3)C2=O)cc1 (stereo not drawn),1.1,0.92
CN(Cc1ccccc1)C(=O)Cn1ncc2ccsc2c1=O,0.94,-2.7
COc1ccccc1CNC(=O)C(CC(C)C)NS(=O)(=O)c1ccc2c(c1)CCN2C(C)=O (stereo not drawn),0.94,-1.1
COc1ccc(CNC(=O)c2cc(=O)[nH]c3ccc(S(=O)(=O)N4CCCCC4)cc23)c(OC)c1,0.9,-1.2
Fc1cccc(Cl)c1-c1nnc2ccc(C(F)(F)F)cn12,1.1&1,2.5&0.51
CCOc1ccccc1NC(=O)Cc1nn(C)c(=O)c2ccccc12,0.87,-1.9
Cc1sc2ncn(CC(=O)NCCCC(=O)N(C)Cc3ccccc3)c(=O)c2c1C,0.99,-0.14
CCN1CCN(Cc2ccc(NC(=O)Cn3ncc4c3-c3ccccc3OC4)cc2)CC1,0.98,-0.37
CCOc1ccc(CCNC(=O)Cn2nnc(-c3ccc(OC)c(OC)c3)n2)cc1OCC,0.9,-0.95
CCOC(=O)c1ccc(N2C(=O)Cn3cccc3C2C(=O)NC2CCCCC2C)cc1 (stereo not drawn),1,0.72
CN(C)c1oc(-c2ccccc2Cl)nc1S(=O)(=O)c1ccccc1,0.95,-1.8
C=CCn1c(C(C)NC(=O)c2ccc(F)cc2)nc2ccccc21 (stereo not drawn),0.98,-0.3
COc1ccc(N2CCN(c3oc(COc4cccc(C)c4)nc3C#N)CC2)cc1,0.49*,-14*
COc1ccc(N)cc1-n1c(C)ccc1C,0.96,-0.71
Cc1ccc(NS(=O)(=O)c2cn(C)cn2)cc1,0.93,-1.1
CCN(c1cccc(C)c1)S(=O)(=O)c1ccc2[nH]cc(C(=O)NCC3CCCO3)c(=O)c2c1 (stereo not drawn),1,0.13
CC(C)c1ccc(NC(=O)C2CCN(S(=O)(=O)c3ccccc3)CC2)cc1,0.94,-1.1
COc1ccccc1CNC(=O)CNC(=O)Cn1c(C)cc2ccccc2c1=O,1.1,1.4
O=C(Nc1ccc2c(c1)OCO2)C(c1ccccc1)N(Cc1ccccc1)c1ccccc1 (stereo not drawn),0.93,-0.46
CCN1C(=O)c2ccccc2S(=O)c2ccc(C(=O)NC(C)CCc3ccccc3)cc21 (stereo not drawn),1,0.26
COc1ccc(-c2nc3cc(F)c(Cl)cc3nc2-c2ccc(OC)cc2)cc1,2.2,7.6
COc1ccc(NS(=O)(=O)c2ccc3c(c2)CCN3C(=O)CCC(=O)O)cc1,0.96,-0.6
Cc1ccc(N2CCN(c3cc(C)nc4nc(C)nn34)CC2)c(C)c1,0.92,-1
O=C(Nc1ccc2oc(-c3cccc(F)c3)nc2c1)c1ccc2ccccc2c1,1,0.24
Cc1nn(-c2nc3ccccc3[nH]2)c2c1C(=O)CC(C)(C)C2,0.72,-1.1
O=C(Cn1nc(-c2ccccc2)c2ccccc2c1=O)Nc1cccc(C(F)(F)F)c1,0.97,-0.38
CCC(C)(NC(=O)C1CCC(=O)N1)C(=O)NC1CCCCC1 (stereo not drawn),1.1,0.38
Cc1nc2c(-c3ccccc3)c(C)nn2c(C)c1CCC(=O)NCCCN1CCCC1,1.2,2.1
CCN1CCn2c3c(c4cc(Br)ccc42)CCCC31 (stereo not drawn),0.96,-1.1
O=C(NCc1nnc(SCC(=O)N2CCOCC2)o1)c1c(F)cccc1Cl,0.92,-1.3
O=C1c2ccccc2C(Nc2ccc(Cl)cc2)N1c1cccnc1 (stereo not drawn),0.97,-0.33
Cc1cc(N2CCN(c3ncccn3)CC2)nc2ccc(NC(=O)c3ccccn3)cc12,1.1,2.7
COc1ccc(C2CC(=O)c3c([nH]c(C(=O)OCCOc4ccccc4)c3C)C2)cc1OC (stereo not drawn),0.98,-0.32
CCOC(=O)c1ccc(NS(=O)(=O)c2cc(-c3nnnn3C)ccc2OC)cc1,1,0.34
CCCOc1ccc(C(=O)NCCN2CCCCC2)c(O)c1,1,0.69
COCCNC(=O)C1CCC(=O)N1Cc1ccc(F)cc1 (stereo not drawn),0.94,-1.6
Clc1ccc(CSc2nc(NCC3CCCO3)c3ccccc3n2)cc1 (stereo not drawn),0.59,-1.1
O=C(Cn1nc(Cc2cccnc2)c2ccccc2c1=O)NCCCN1CCOCC1,1,0.91
CC1CCCCN1CCNC(=O)c1ccc2c(c1)N(Cc1ccc(F)cc1Cl)C(=O)CS2 (stereo not drawn),1,0.56
COc1ccc(C(=O)Nc2c3c(nn2-c2ccc(F)cc2)CS(=O)(=O)C3)cc1,1.1,1.3

# Gathered by group: the entries above containing fluorine (15)
SMILES,CBX7 AlphaScr,CBX7 AlphaScr z-score
O=C(Nc1ccccc1Cl)c1ccc(F)c(S(=O)(=O)N2CCOCC2)c1,1,0.5
CCC1Oc2ccccc2N(CC(=O)NCCCN2CCN(c3ccccc3F)CC2)C1=O (stereo not drawn),0.98,-0.74
COCCNC(=O)C1CCN(C(=O)c2cc3sccc3n2Cc2ccc(F)cc2)CC1,1,0.82
CCN(CC)CCCNC(=O)c1nn2c(C(F)(F)F)c3c(nc2c1Cl)-c1ccccc1CC3,1.3,2.5
O=C(Cc1ccccc1)Nc1nnc(-c2ccc(F)cc2)s1,0.98,-0.39
COc1ccc(CN2C(=O)c3cccnc3C2Nc2ccc(Br)cc2F)cc1 (stereo not drawn),0.19*,-10*
Fc1cccc(Cl)c1-c1nnc2ccc(C(F)(F)F)cn12,1.1&1,2.5&0.51
C=CCn1c(C(C)NC(=O)c2ccc(F)cc2)nc2ccccc21 (stereo not drawn),0.98,-0.3
COc1ccc(-c2nc3cc(F)c(Cl)cc3nc2-c2ccc(OC)cc2)cc1,2.2,7.6
O=C(Nc1ccc2oc(-c3cccc(F)c3)nc2c1)c1ccc2ccccc2c1,1,0.24
O=C(Cn1nc(-c2ccccc2)c2ccccc2c1=O)Nc1cccc(C(F)(F)F)c1,0.97,-0.38
O=C(NCc1nnc(SCC(=O)N2CCOCC2)o1)c1c(F)cccc1Cl,0.92,-1.3
COCCNC(=O)C1CCC(=O)N1Cc1ccc(F)cc1 (stereo not drawn),0.94,-1.6
CC1CCCCN1CCNC(=O)c1ccc2c(c1)N(Cc1ccc(F)cc1Cl)C(=O)CS2 (stereo not drawn),1,0.56
COc1ccc(C(=O)Nc2c3c(nn2-c2ccc(F)cc2)CS(=O)(=O)C3)cc1,1.1,1.3

# High-throughput results as filed in PubChem.

# Only part of the results is shown; count on the stated rates, not on these rows.
